CapD inh – Bacillus anthracis CapD inhibitors, primary screen, biochemical, fluorescence intensity. CapD gamma-glutamyltranspeptidase (Bacillus anthracis Ames Ancestor). actives 0.23% (n = 140,000). purified CapD enzyme, fluorescence intensity read-out; active compounds read low; some hits fall short of the stated cut. z-score (no concentration beside the values);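 active = z-score under -4 in either of two replicates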;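 note: stock transfer was 100 nL into about 40 µL; score is relative to mean and spread of the plate; one replicate is shown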
AID504770 – growth inhibition of E. coli YBA685, primary screen, V. cholerae RctB inhibitors; z-score (no concentration beside the values); actives 0.27% (n = 130,000); E. coli YBA685 rctB-dependent plasmid, OD600 growth, 3 h; active compounds read low;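 active = z-score under -2 on both plates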;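 note: wells of about 30 µL received 100 nL stock; score is relative to mean and SD of the test wells; the first replicate is given; strong numbers were not always called active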
The depositor's hits bear a star; / = not tested or not shown; & = joins results of further samples.

SMILES	CapD inh	AID504770
CN(C)C(=O)Cn1c(Cl)nc2c1c(=O)n(C)c(=O)n2C	/	-0.45
CCSCCOC(=O)C1=C(C)NC(=O)NC1c1cc(Br)c(O)c(OC)c1 (configuration not stated)	0.39	/
S=C(NCc1ccco1)Nc1ccc(Cl)cc1	-0.62	/
O=C(O)CCC(=O)N(Cc1ccccc1)Cc1cn(-c2ccccc2)nc1-c1cccnc1	-0.035	-0.25
COc1ccc(CN(CCN)C2CC(C)N(C)CC2C)cc1 (configuration not stated)	/	0.55
c1ccc(-c2cc3ccccn3c2)cc1	21	-0.15
CCOc1ccc(NC(=O)c2sc3nc(C)nc(N4CCOCC4)c3c2C)cc1	-0.64	/
CCOc1ccc2[nH]c(=O)c(CNCCCO)cc2c1	/	-0.15
CCOC(=O)C1=C(C)NC(C)=C(C(=O)OCC)C1c1cn(-c2ccccc2)nc1-c1cccc([N+](=O)[O-])c1	-0.31	/
CC1CCN(Cc2c(C(=O)N/N=C/C=C/c3ccccc3)nnn2-c2nonc2N)CC1	-1.1	0.05

A second format for some results above:
Compound | CapD inh | AID504770
O=C(O)CCC(=O)N(Cc1ccccc1)Cc1cn(-c2ccccc2)nc1-c1cccnc1 | -0.035 | -0.25
COc1ccc(CN(CCN)C2CC(C)N(C)CC2C)cc1 (configuration not stated) | / | 0.55
c1ccc(-c2cc3ccccn3c2)cc1 | 21 | -0.15
CCOc1ccc(NC(=O)c2sc3nc(C)nc(N4CCOCC4)c3c2C)cc1 | -0.64 | /
CCOc1ccc2[nH]c(=O)c(CNCCCO)cc2c1 | / | -0.15
CCOC(=O)C1=C(C)NC(C)=C(C(=O)OCC)C1c1cn(-c2ccccc2)nc1-c1cccc([N+](=O)[O-])c1 | -0.31 | /
CC1CCN(Cc2c(C(=O)N/N=C/C=C/c3ccccc3)nnn2-c2nonc2N)CC1 | -1.1 | 0.05

Returning to the listing, repeating the 3 entries before the break.
SMILES	CapD inh	AID504770
CCOc1ccc2[nH]c(=O)c(CNCCCO)cc2c1	/	-0.15
CCOC(=O)C1=C(C)NC(C)=C(C(=O)OCC)C1c1cn(-c2ccccc2)nc1-c1cccc([N+](=O)[O-])c1	-0.31	/
CC1CCN(Cc2c(C(=O)N/N=C/C=C/c3ccccc3)nnn2-c2nonc2N)CC1	-1.1	0.05
Cc1ccc(S(=O)(=O)Cc2nc(-c3ccc(C(=O)NC(C)C)cc3)oc2C)cc1	4.8	0.2
COCCCNS(=O)(=O)c1cc(Cl)sc1Cl	0.28	/
COC(=O)C1=C(Nc2ccccc2NS(=O)(=O)c2ccccc2Cl)CSC1	-0.21	0.15
O=C(O/N=C\c1ccc(N2CCOCC2)c([N+](=O)[O-])c1)c1ccc(F)cc1	-0.16	/
COCCN(CCCN1CCc2ccccc21)C(=O)c1cccc(C(F)(F)F)c1	-0.28	/
N#Cc1cc2c(N)c(C(=O)Nc3ccccc3)sc2nc1N	1.2	1.5
CC(C)(C)NC(=O)NNc1nc2ccc(Cl)cc2s1	-0.73	2
C=CCn1c(CNC(C)=O)nc2ccccc21	-1&-0.02	2.2&0.45
COc1ccc(Nc2nc(NCc3cccnc3)nc(NCc3cccnc3)n2)c(OC)c1	0.19	/
CCc1ccccc1N(C)C(=O)CCn1cnc2onc(-c3ccc(F)cc3)c2c1=O	-0.23	-0.2
O=C(O)CSc1ccc2ccccc2c1	3.5	0
Cc1sc2ncnc(Nc3ccccc3)c2c1C	0.015	-0.85
COc1ccc2c(c1)C(C)(CC#N)C(=O)N2C (configuration not stated)	-0.18	-0.4
CCOC(=O)Nc1ccc2c(c1)N(CCCN(C)C)c1ccccc1CC2	/	0.35
CCOc1ccc(NC(=O)CSc2nc3cc(C(=O)NCC4CCCO4)ccc3c(=O)n2CC2CCCO2)cc1 (configuration not stated)	0.85	/
CNCc1nc2ccc(Cl)cc2[nH]1	/	-1.1
CCOC(=O)COc1ccc2c(c1)C(=O)CC(C)(C)O2	0.21	-0.1
NCCNCC1COC2(CCCCCCCCCCC2)O1 (configuration not stated)	0.09	-2.9*
O=C(NCCc1cccc(Cl)c1)OCCCCc1ccc([N+](=O)[O-])cc1	-1.3	/
CS(=O)(=O)c1ccc2[nH]c(C(=O)NC3CCSC3=O)cc2c1 (configuration not stated)	-0.065	/
CCOC(=O)c1ccccc1NC(=O)CC1SC(=NC)N(C)C1=O (configuration not stated)	0	/
O=C(NCc1cccs1)c1cccnc1SCCS(=O)(=O)c1ccc(C(F)(F)F)cn1	-0.3	0.35
COc1ccc(N2C(=O)c3ccccc3NC23CC2CC=CC23)cc1 (configuration not stated)	/	-0.2
Cc1nc2ccccc2c2oc(C(=O)NC3CCC(C)CC3)cc12 (configuration not stated)	0.23	0.05
N#Cc1cc(C(=O)c2cc(F)ccc2O)cn(C2CC2)c1=O	/	-0.1
O=C(c1ccc(F)c(F)c1)N1CCc2ccccc2C1	/	-0.45
Cc1ccc(/C=C2\SC(=S)N(C3CCS(=O)(=O)C3)C2=O)cc1 (configuration not stated)	1.2	-0.3
CCOC(=O)C1CCCN(C(=O)C23CC4CC(CC(C4)C2)C3)C1 (configuration not stated)	-0.98	0.3
CS(=O)(=O)c1ccc(CN(C(=O)C(c2ccccc2)c2ccccc2)C2CCN(Cc3ccccc3)CC2)cc1	-0.47	/
COC(=O)c1ccc(/C=[N+](\[O-])c2ccccc2)cc1	-0.41	-0.15
Cc1csc(SC(C)C(=O)Nc2ccc(S(=O)(=O)N3CCCC3)cc2)n1 (configuration not stated)	/	0
CCn1c2c(c3ccc(OC)cc31)CCCC2=O	37	1.1
O=C(Cc1nc2ccccc2n1C(F)F)c1ccccc1	/	-0.4
CCCCN1C(=O)c2ccc(C(=O)Oc3ccc(-c4nnco4)cc3)cc2C1=O	/	-0.35
COc1ccc(OC)c(N2CC(O)(c3ccc(C)cc3)[N+]3=C2SCCC3)c1 (configuration not stated)	57	/
CCc1nn(-c2ccccc2)c(=O)c2ccccc12	1	-0.65
CC(=O)c1sc2nsc(SCCN3CCCCC3)c2c1N	-1.2	-0.7
Cc1ccc(-c2nn(-c3ccccc3)c(=O)c3ccccc23)cc1C	1.4	/
Cc1nnsc1C(=O)NCc1ccc(N2CCN(C)CC2)cc1	-0.32	-0.1
O=C(Nc1ccc(F)cc1)N1CCC(Nc2nc3ccccc3o2)CC1	-0.045	0.05
O=C1CC2(CCCC2)C(=O)N1c1ccc(S(=O)(=O)NCc2ccco2)cc1Cl	0.41	-0.25
COc1ccc2cc(C#N)c(Cl)nc2c1	-0.18	/
NC(=O)C1CCCN1c1ncnc2sc(-c3ccccc3)cc12 (configuration not stated)	/	0.9
COC(=O)c1sc(-c2cccs2)cc1NC(=O)c1ccco1	19	2
COc1ccc(S(=O)(=O)Nc2ccc(O)c(Sc3ncn[nH]3)c2)cc1	0.19	-0.9
COC(=O)c1cc2c(C)nn(-c3ccccc3)c2s1	-0.45	-0.6
COc1cc(CN2CCN(CCOC(=O)NCCc3ccc(O)cc3)CC2)cc2c1OCO2	0.12	/
COc1cccc(-c2cc(C(=O)N(C)C3CCCCC3)[nH]n2)c1	-0.33	1.5
N#Cc1c(F)cccc1Oc1ccccc1	0.2	/
O=C(O)COc1ccc(-n2cccc2)cc1	/	-0.75

Further records follow:
SMILES	CapD inh	AID504770
CN(C)CC(C)(C)CNC(=O)OCCN1CCN(Cc2cc3ccccc3o2)CC1	-0.075	/
CCOc1ccc(C2c3cc(OC)c(OC)cc3CC(=O)N2c2ccccc2)cc1 (configuration not stated)	0.31	2.2
CC(C)N(C(=O)Nc1ccccc1)C(C)C	0.33	2.1
N#Cc1ccccc1NS(=O)(=O)c1ccccc1	4.8	-0.1
O=C(Cc1cccc2ccccc12)Nc1ccc2nc(SCC(=O)N3CCOCC3)sc2c1	-0.45	/
CC(O)CON1C(=O)c2ccccc2C1=O (configuration not stated)	0.47	-0.65
NC(=O)c1ccc(NC(=O)COC(=O)Cc2cccc3ccccc23)cc1	-0.73	-0.75
Cc1c2cnn(CC(=O)N3CCc4ccccc43)c(=O)c2c(C)n1Cc1ccc(F)cc1	-0.02	1.9
Brc1ccc(C2Nc3ccc4ccccc4c3C3C=CCC32)cc1 (configuration not stated)	1.9	/
CCOC(=O)C1C(=O)Oc2ccc(Br)cc2C1C1(C(=O)OC)CCCCC1 (configuration not stated)	1.2	-0.35
CN1CCSc2ccc(C(=O)Nc3cc(F)ccc3F)cc21	40	-1
O=C(OCCN1C(=O)c2ccccc2C1=O)c1cccc(C(F)(F)F)c1	/	0.1
Cc1cccc(OCCCC(=O)Nc2ccccc2N2CCOCC2)c1	/	-0.7
O=Cc1ccc(Sc2nnc(-c3ccccc3)n2-c2ccccc2)o1	4.9	/
NCc1ccccc1OC(F)(F)F	/	0.15
COc1ccc(OCC(=O)N(C)CC2COc3ccccc3O2)cc1 (configuration not stated)	/	-0.05
NNC(=O)C1CCC(c2ccc(Cl)cc2)CC1 (configuration not stated)	-0.68	-3.5
CC(C)NC(=O)CCCc1nc(-c2ccc(Cl)cc2)no1	0.8	-0.35
CCCCS(=O)(=O)Nc1ccc2cn[nH]c2c1	/	-0.2
Cn1c(=O)n(CC(=O)Nc2ccc3c(c2)OCCO3)c(=O)c2ccccc21	0.27	/

Compound profiles, from the list above. Order of values: CapD inh, AID504770
`O=Cc1ccc(Sc2nnc(-c3ccccc3)n2-c2ccccc2)o1` across the screens: 4.9, /
`CN1CCSc2ccc(C(=O)Nc3cc(F)ccc3F)cc21` across the screens: 40, -1
`Cc1cccc(OCCCC(=O)Nc2ccccc2N2CCOCC2)c1` across the screens: /, -0.7
`NNC(=O)C1CCC(c2ccc(Cl)cc2)CC1` (configuration not stated) across the screens: -0.68, -3.5
`NCc1ccccc1OC(F)(F)F` across the screens: /, 0.15

Additional structures follow.
SMILES	CapD inh	AID504770
CC1(C)CC(=O)C(C(c2ccc(F)cc2O)C2C(=O)CC(C)(C)CC2=O)C(=O)C1	-0.08	-0.85
CCCc1c(C)nc2scc(-c3ccccc3)n2c1=O	-0.38	/
CCOC(=O)C1=C(C)NC2=C(C(=O)C(C(=O)OCC)C(c3ccccc3OC)C2)C1c1ccccc1C (configuration not stated)	6.2	/
CC(C)(C)NC(=O)CSc1nncn1NCc1ccccc1	/	0.15
COc1ccc(OC)c(C2C(C(=O)Nc3nc4ccccc4s3)=C(C)NC3=C2C(=O)CC(C)(C)C3)c1 (configuration not stated)	7.8	/
CCOC(=O)c1ccc(N/C=C/C(=O)C(C)(C)C)cc1	-1.8	-0.8
CCCCCc1c(C)nc(-c2ccccn2)[nH]c1=O	0.14	-0.2
COc1ccc(S(=O)(=O)N2CCC(C(=O)O)CC2)cc1	-0.04	-0.3
COc1cc(OC)c(OC)cc1/C=N/n1c(C)nnc1-n1nc(C)cc1C	8.8	-0.9
CC(=O)Oc1ccccc1C(=O)NCc1ccc(C)cc1	4.9	-0.1
O=C(Cc1cccc2ccccc12)N/N=C/c1ccc(Sc2nnc(-c3ccccc3)n2-c2ccccc2)o1	-0.06	/
CSc1nc2nccc(C(C)Oc3ccc(Cl)cc3Cl)n2n1 (configuration not stated)	0.15	/
CCOC(=O)N1CCC(NC(=O)c2ccc3c(c2)N(Cc2cccc(Cl)c2)C(=O)c2ccccc2S3=O)CC1 (configuration not stated)	-0.64	-0.25
Cn1c2c(c(=O)n(C)c1=O)C(c1ccc([N+](=O)[O-])o1)C1=C(N2)c2ccccc2C1=O (configuration not stated)	-0.58	/
COc1ccccc1C(=O)Nc1ccc2oc(-c3ccccc3Br)nc2c1	16	/
COC(=O)c1ccc(COC(=O)NNC(=O)c2sc(-c3ccc(C(F)(F)F)cc3)nc2C)cc1	7.7	/
CN1CCN(c2ccc(CNS(=O)(=O)c3ccc(-c4ccno4)s3)cc2)CC1	-0.66	2.3
CCN1CCn2c3c(c4cc(Cl)ccc42)CCCC31 (configuration not stated)	0.28	0.35
COCN1C(=O)c2cc(Cl)c(Cl)cc2C1=O	/	-0.05
Cc1ccc(/C(O)=C2\C(=O)C(=O)N(c3ccccn3)C2c2ccc(C)cc2)cc1 (configuration not stated)	-0.61	/
CC(=O)Oc1ccc(-c2ccc(C(=O)O)cc2)cc1C	-0.57	-0.1
CC(C(=O)Nc1ncccn1)(c1ccccc1)c1ccccc1	-0.18	-0.95
Cc1cccc2c(=O)c(NC(=O)N3CCC(C(N)=O)CC3)c[nH]c12	105	-0.4
COc1ccc(CC2CCC3(CC2)NC(=O)c2ccccc2O3)cc1 (configuration not stated)	0.2	0.2
COc1ccc(S(=O)(=O)Nc2ccc3oc(=O)c(NC(C)=O)cc3c2)cc1OC	3.3	/
COc1cc(-c2nnc(SCc3cn4cc(Cl)ccc4n3)o2)cc(OC)c1OC	/	-0.1
Cc1c(Cl)cccc1N=C1NC(=O)CS1	/	-0.5
O=C(OCCN1CCCC1=O)c1sc2cc(Cl)ccc2c1Cl	0.51	0.3
CCCC#CCCOC(=O)NCc1ccc(S(N)(=O)=O)cc1	-0.03	/
Cc1noc(C)c1COc1cccc(C(=O)OCN2C(=O)c3ccccc3C2=O)c1	/	0.9
O=C(CCC(=O)c1cccs1)Nc1cc(Cl)cc(Cl)c1	0.51	0.55
Cn1nccc1NC(=O)CC#N	-0.66	-0.75
CC(OC(=O)c1oc2ccccc2c1CSc1ncn[nH]1)C(=O)Nc1ccc(S(=O)(=O)Nc2ncccn2)cc1 (configuration not stated)	/	1.3
Nn1c(=O)c2ccccc2n2c(SCC(=O)c3ccccc3)nnc12	0.54	-0.3
O=C(CSc1ccccc1)N1CCN(C(=O)C2CCCO2)CC1 (configuration not stated)	0.045	-0.45
N#CCn1c(CSc2n[nH]c(N)n2)nc2ccccc2c1=O	/	0.45
CCCC(=O)NC(=S)c1sc(N2CCCC2)nc1-c1cccs1	/	0.25
COc1ccc(CNC(=O)c2cnc3scc(C)n3c2=O)cc1	-0.08	-0.2

Assay outcomes (PubChem)

Not all compounds are listed. The share of hits here may be higher or lower than overall.
